Source: PubChem
VACV E9 pol inh: vaccinia E9 polymerase processive synthesis inhibitors, primary screen, biochemical, absorbance | in vitro processive DNA synthesis, absorbance read-out; hits give low values; some inactives read as strong as hits | normalized absorbance, % (concentration not given with the values) | Vaccinia virus DNA polymerase (E9) processive complex | 0.94% of 46,000 active;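 active = replicate mean up to 90% and picked by the depositor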;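 note: 100% = median of the test wells of a plate; 100 nL library stock went into each well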
Numbers without * were called inactive; & = joins results of further samples. Some of the compounds tested, so the mix of outcomes need not match the whole.

mol,VACV E9 pol inh
Cn1nc(C(=O)Nc2cccnc2)c2c1-c1ccccc1SC2,104.7
Cc1ccccc1OCc1nnc2c3cnn(Cc4ccccc4)c3ncn12,100.4
CCN(c1cccc(C)c1)c1ncnc2nc[nH]c12,99.9
CC1=N/C(=C/c2cccnc2)C(=O)O1,100.1
c1ccc(Cc2nn3c(Cn4cnc5ccccc54)nnc3s2)cc1,102.6
O=C(CSC1=NCCS1)Nc1ccc(Cl)cn1,101.2
O=C(O)c1ccc(-n2cccc2)cc1O,92.8
Cc1ccc(C2CC(=O)NC(SCC(=O)OC(C)C)=C2C#N)cc1 (centres undefined),99.7
O=C(O)/C=C1\OC(=O)c2ccccc21,103.6
COc1ccc2[nH]c(C)c(CCN(Cc3cccs3)C(=S)NC3CCCCC3)c2c1,98.2
N=C1Cc2ccccc2N1CC(=O)c1ccc(Br)cc1,105.5
Cc1[nH][nH]c(=O)c1C1(C(C#N)C#N)C2CC3CC(C2)CC1C3 (centres undefined),97.7
CC(C)Sc1nnc(NC(=O)c2ccccc2C(F)(F)F)s1,101.2
Clc1ccc2oc(-c3ccccc3)cc(=NCc3ccco3)c2c1,89.5
CC(=O)N/C(=C/c1ccccc1Br)C(=O)NC1CCCCCC1,97.9
O=C(c1oc(=O)c2ccccc2c1-c1ccccc1)N1CCCN(Cc2ccc(F)cc2)C1,95.1
C=CC1(C)OCO/C1=C\C[N+](C)(C)C (centres undefined),100.8
COc1cc(OC)cc(C(=O)N2CCc3ccccc32)c1,100.3
CCCNC(=O)c1ccc(S(=O)(=O)N(C)c2ccccc2)cc1,95.6
Cc1cc(N2C(=O)Nc3ccccc3N2O)no1,101.8
COc1ccc(NC(=O)C2Cc3ccccc3CN2C(=O)c2ccccc2)cc1 (centres undefined),108.3
O=S(=O)(CCN1CCSCC1)c1ccccc1,101.8
O=C(NCc1ccco1)C(c1ccccc1)c1ccccc1,100.5
COc1cc(Cl)cc(C(=O)O)c1O,100.6
C=CCn1c(-c2ccccc2Cl)nc2ccccc21,102.7
CC(=O)Oc1ccccc1C(=O)N(c1ccccc1)C(C)C1CC1 (centres undefined),103.2
Cn1c(=O)[nH]c(=O)c2c1[nH]c(=S)n2CC(O)COc1ccc2ccccc2c1 (centres undefined),100.0
Cc1ccc(Nc2nc(C3(C)CC(C(C)C)C(=O)O3)cs2)cc1 (centres undefined),100.2
CC(CCc1ccccc1)NC(=O)CSc1ccccn1 (centres undefined),101.0
COc1ccc(S(N)(=O)=O)cc1-c1nnc2c3ccccc3c(C)nn12,79.2
COc1ccc(Cl)cc1NC(=O)/C=C/c1cccs1,105.5
CCN(CC)c1ccc(C=C2C(=O)c3ccccc3C2=O)c(OC)c1,100.2
CCOC(=O)C1CCN(C(=O)c2sc(-c3ccc4c(c3)CCO4)nc2C)CC1,99.1
Oc1ccc(CCc2n[nH]c(=S)n2CCc2ccccc2)cc1,87.4
O=C(/C=C/c1ccccc1)N1CCCCC1c1cccnc1 (centres undefined),99.9
CNC(=O)COc1ccc(Nc2nnc(-c3ccc(C)cc3)c3ccccc23)cc1,99.9
COc1ccc(-n2cnc3cc(NCc4ccccc4O)ccc32)cc1,84.4
Cc1ccc(S(=O)(=O)NCCC(=O)NC2CCCCC2)cc1,102.2
Cc1c(COC(=O)c2ccccc2)sc2ccccc12,99.0
O=C(C1CCCCC1)N1CCN(c2nnc(-c3ccccc3)c3ccccc23)CC1,111.4
CCOc1ccc(NC(=O)C2C3C=CC(O3)C2C(=O)O)cc1 (centres undefined),80.0
C=CCN(CC=C)Cc1c(O)ccc2c(=O)c(-c3ccccc3)coc12,99.5
COc1ccc(NC(=O)C2(N(C(=O)Cn3nnnc3N)c3ccc(OC)cc3)CCCCC2)cc1,98.3
CC12C(=O)OC(=O)C1(C)C1CCC2O1 (centres undefined),96.6
COc1ccc(NS(=O)(=O)N2CCCCC2)cc1,108.6
O=c1[nH]c2ccc(Br)cc2c(-c2ccccc2)c1N1CCCCC1,101.0
CCNC(=O)C1CCCN(c2nnc(N3CCCC3=O)s2)C1 (centres undefined),100.5
NS(=O)(=O)c1ccc(CCNC(=O)CCC2COc3ccccc3O2)cc1 (centres undefined),94.5
Cc1cccc(OCCOC(=O)c2ccc(O)cc2)c1,101.0
CCOC(=O)CSc1nnc(NC(=O)C(C)C)s1,98.4

Additional compounds.
mol,VACV E9 pol inh
CCCNS(=O)(=O)c1cccc2cccnc12,89.8
O=c1/c(=C\c2cccc(Cl)c2)sc2nc(-c3cccs3)nn12,90.4
c1ccc(-c2csc3ncnc(NCCCN4CCOCC4)c23)cc1,108.2
S=C(SCSc1nc2ccccc2s1)N1CCCCC1,97.0
OC1CCCN(Cc2ccccc2)C1 (centres undefined),99.4
Nc1cc(=O)nc(SCC(=O)NCc2ccccc2)n1-c1ccccc1,100.4
COc1cccc(-n2cc(C(=O)N(C)c3ccccc3)c3ccccc3c2=O)c1,89.6
COc1cnc(N)nc1,101.0
CC1=C(C)CC(C(=O)c2ccc(C)cc2)C(C(=O)O)C1 (centres undefined),100.2
O=C(NCc1ccc(Cl)cc1)c1cc(F)c(F)c(F)c1F,100.0
CCOc1ccc(-c2cc(C(=O)NCCCN3CCCCC3)c3ccccc3n2)cc1,95.1
CCCCN(Cc1ccccc1)S(=O)(=O)c1ccc2c(c1)oc(=O)n2CC(=O)OCC,97.4
COC(=O)C1=C(NC(=O)c2ccccc2)CCS1,100.1
CCSC(=O)NC1CCCCC1,91.6
O=C(COC(=O)Cc1cccc(C(F)(F)F)c1)NCC1CCCO1 (centres undefined),107.2
COc1ccc(CCN(C)C(=O)C2CCCN(Cc3ccc(OC)c(OC)c3)C2)cc1OC (centres undefined),100.6
CC(=O)Nc1ccc(C(=O)OCC(=O)Nc2ccc(F)c(F)c2)cc1,90.1
O=C(Nc1ccc(F)cc1)c1cc2cc(Cl)cc(Cl)c2oc1=O,99.5
Clc1ccc2nc(N3CCCCC3)[nH]c2c1,100.4
Cc1[nH]c2ccccc2c1C(Nc1ccccn1)c1ccc(C(F)(F)F)cc1 (centres undefined),99.4
OC(COc1ccc2c(c1)OCO2)CN1CCCCCC1 (centres undefined),100.9
O=C1OC(c2ccc(O)cc2)Nc2ccc(C(F)(F)F)cc21 (centres undefined),90.4
O=C(NCc1ccccc1)NCc1c(-n2cccc2)sc2c1CCCC2,97.2
Nc1nonc1N1CCCCC1,99.2
COC(=O)c1cccc(C(=O)OC)c1,95.4
CO[C@@]1(NC(=O)Cc2cccs2)C(=O)N2C(C(=O)O)=C(COC(N)=O)CS[C@@H]21,100.2
Cc1ccc(S/C(=C/N(C)C)C(=O)c2ccc(C)cc2)cc1,99.9
CC(=NCc1nnc(C)s1)c1cc2c(=O)n(C)c3ccccc3c2oc1=O,97.4
Cc1ccc2cc3cc(C(=O)NCCN4CCN(c5cccc(Cl)c5)CC4)sc3nc2c1,104.2
CN(C)CCC(O)c1cc(Cl)sc1Cl (centres undefined),101.0

Look-ups from the list:
VACV E9 pol inh, Cc1ccc2cc3cc(C(=O)NCCN4CCN(c5cccc(Cl)c5)CC4)sc3nc2c1 is entered as 104.2
VACV E9 pol inh, Cc1ccc(S/C(=C/N(C)C)C(=O)c2ccc(C)cc2)cc1 is entered as 99.9

The listing continues.
mol,VACV E9 pol inh
CCC(C)(C)n1c(=O)[nH]c2c(c1=O)CCC2,100.2
COc1ccc(-c2nn(-c3ccccc3)cc2C#N)cc1OC,94.3
CC(C)N(C(=O)C[n+]1ccc(/C=N/O)cc1)C(C)C,100.0
CC(Sc1ccccn1)C(=O)Nc1ccc(S(N)(=O)=O)cc1 (centres undefined),100.1
CCN(CCO)C(=O)CCN1C(=O)/C(=C/c2ccc(OC)c(OC)c2)SC1=S,99.4
O=C1N(CNc2ccccc2)CCN1CNc1ccccc1,100.7
Cc1cccc(NC(=S)NCCCN2CCOCC2)c1,99.8
COC(=O)C(CC(=O)c1ccc(Br)cc1)n1cncn1 (centres undefined),102.4
N#CCc1ccc(NC(=O)c2nccnc2C(=O)O)cc1,100.8
O=C(CN1C(=O)C2(OCCO2)c2ccccc21)c1ccc(Br)cc1,108.0
CCOc1ccc(N=CC=Nc2ccc(OCC)cc2)cc1,99.7
Cc1ccsc1C(=O)OCC(=O)NC(c1ccccc1)c1ccccc1,99.2
Cc1ccc(S(=O)(=O)N2CCn3c(nc4ccccc43)C2)cc1,102.1
CC(C)(C)C(=O)Nc1nnc(SCc2ccccc2)s1,88.3
CCCc1cc(=O)oc2cc(OCC(=O)OCc3ccccc3)ccc12,100.6
CCC1CCCCN1C(=O)COC(=O)c1cc(C)nc2ccccc12 (centres undefined),70.9
COc1ccc(NC2=NCCS2)cc1,101.5
CCc1ccc(S(=O)(=O)N2CCSC2c2ccccc2)cc1 (centres undefined),99.8
COc1ccc(NC(=O)C2CC2)c2ccccc12,96.8
c1ccc(Cn2cnnc2)cc1,103.9
O=C(NCCc1ccccc1)c1cc2cc(Cl)cc(Cl)c2oc1=O,93.5
COC(=O)C1=CN(CCc2ccc(F)cc2)C=C(C(=O)OC)C1c1ccccc1C(F)(F)F,100.5
CSc1ccccc1NC(=O)Cn1c(SC)nc2ccccc21,104.9
CNC1c2c(ccc3ccccc23)OCC1CO (centres undefined),93.8
CC(C)(C(=O)Nc1cccc(Cl)c1)S(=O)(=O)c1ccc(C(F)(F)F)cn1,100.8
CC(=O)NC1=NC(=O)/C(=C/c2cccc(Oc3ccccc3)c2)S1,99.9
COc1ccccc1N1C(=O)C2CSC(c3ccc(C)cc3)N2C1=O (centres undefined),97.1
CCc1c(C)oc2cc3ccccc3c-2c1C,101.7
O=C1N=C(c2ccccc2)O/C1=C\C=C\c1ccccc1,113.9
Cc1ccn2cc(-c3ccc(O)c(O)c3)nc2c1,98.3
COc1ccc(/C=C/C(=O)CCC(=O)O)cc1,95.8
CN(CC(=O)O)S(=O)(=O)c1ccc(Br)cc1,97.8
CC1=NN(c2cccc(C(=O)O)c2)C(=O)/C1=C/c1ccc(-c2cccc(Cl)c2C)o1,51.4*
Cc1nc2ccccc2c2oc(C(=O)NC3CCCC3)cc12,96.3
CCCC(C(=O)O)N1C(=O)/C(=C/c2ccccc2Cl)SC1=S (centres undefined),55.6*
CC(C)(C)OC(=O)N1CCCN(C(=O)Nc2ccc(F)cc2F)CC1,107.3
Cc1ccc(S(=O)(=O)NC(=O)NN2CCCCCC2)cc1,99.1&102.0
O=C(OCc1c(F)cccc1Cl)c1cc[n+]([O-])cc1,100.2
COc1ccccc1C1N(c2ccc(Cl)cc2)C(=O)N2CCCN12 (centres undefined),97.8
CC(=O)Oc1ccc2c(=O)c(-c3nc4ccccc4s3)coc2c1,101.1
Cc1ccc(OCc2n[nH]c(=S)n2-c2ccccc2)cc1C,100.1
CCOC(=O)c1cc2ccccc2n1C,98.4
CCn1c(C)c(CCC(=O)NCCCc2ccccc2)c(=O)n2nc(-c3ccccc3OC)cc12,93.5
COC(=O)c1ccc2c(c1)no[n+]2[O-],108.5
CC(=O)Oc1ccccc1OCC(=O)c1ccccc1,103.9
CNc1sc(S(C)(=O)=O)nc1S(=O)(=O)c1ccc(C)cc1,103.6
CC(C)N=C(NS(=O)(=O)c1cccs1)c1ccccc1,99.9
CO[C@H]1O[C@H](COC(=O)c2ccccc2)[C@@H](O)[C@H](O)[C@H]1OC(=O)c1ccccc1,81.5
C=CCN1CC(O)=C(c2nc3ccccc3[nH]2)C1=N,109.4
O=C(O)CNS(=O)(=O)c1ccccc1C(F)(F)F,101.8

By substructure, the compounds so far with a cyano group
mol,VACV E9 pol inh
Cc1ccc(C2CC(=O)NC(SCC(=O)OC(C)C)=C2C#N)cc1 (centres undefined),99.7
Cc1[nH][nH]c(=O)c1C1(C(C#N)C#N)C2CC3CC(C2)CC1C3 (centres undefined),97.7
COc1ccc(-c2nn(-c3ccccc3)cc2C#N)cc1OC,94.3
N#CCc1ccc(NC(=O)c2nccnc2C(=O)O)cc1,100.8

Further compounds follow:
mol,VACV E9 pol inh
COC(=O)c1ccc2c(c1)NC(=O)C1CCCN21 (centres undefined),94.4
CCOc1ccc(-n2c(SC(C)CC)nc3c(c2=O)SCC3)cc1 (centres undefined),90.9
Cc1cc(C)n2nc(Cc3ccccc3)nc2n1,95.8
COc1ccc(C2=NN(CCC(=O)NC3CC3)C(=O)CC2)cc1,115.3
COc1c(C#N)sc2ccccc12,85.5
O=C(C[n+]1cccc(C(=O)Nc2ccccc2)c1)c1ccc(N2C(=O)c3ccccc3C2=O)cc1,100.6
COc1ccc(OCC(=O)Nc2c(Cl)cccc2Cl)cc1,107.1
NS(=O)(=O)c1ccc(CNC(=O)c2ccccc2Oc2ccccc2)cc1,100.9
N#Cc1ccc(-c2ccc(OC(=O)c3cccnc3)cc2)cc1,94.0
CC(C)CNC(=O)CCN1C(=O)c2ccccc2S1(=O)=O,100.2
CCc1ccc(N=Cc2c(O)[nH]c3ccccc23)cc1,101.1
COC(=O)c1cc(=O)c2c(C)nc(-c3ccc(Cl)cc3)nc2[nH]1,100.0
O=C(O)CC1(CC(=O)N2CCC(Cc3ccccc3)CC2)CCCC1,109.5
O=C1CSC(=NC(=O)c2ccc(Cl)c(Cl)c2)N1,108.7
CCOC(=O)C1CCCN(C(=O)CSc2ccc3ccccc3c2)C1 (centres undefined),93.8
Oc1cccc(Oc2ncc(C(F)(F)F)cc2Cl)c1,100.4
COc1ccc(N2C(=O)C3CC=CCC3C2=O)cc1 (centres undefined),100.5
O=C1c2ccccc2C(O)(Cc2ccccc2)N1CCCO (centres undefined),96.2
